KCNQ2 pot – potentiators of rat KCNQ2 potassium channel; Potassium voltage-gated channel subfamily KQT member 2 (Rattus norvegicus), O88943; CHO-K1 KCNQ2, FluxOR thallium flux fluorescence; hits give high values; B-score at 10 µM; actives 0.54% (n = 310,000); AID 2239, 2010;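 active = fluorescence ratio B-score at least 3 SD of library B-scores, with initial fluorescence B-score within 3 SD, cut at about 5.3 in these data; same plate scores as AID 2156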;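 also: B-score of peak minus minimum over baseline fluorescence ratio after K+ and Tl+ stimulus; positive B-score means potentiation of KCNQ2 with more thallium influx and brighter signal; only the inactives scoring about 0 or higher are listed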
Target sequence (O88943 whole entry, looked up): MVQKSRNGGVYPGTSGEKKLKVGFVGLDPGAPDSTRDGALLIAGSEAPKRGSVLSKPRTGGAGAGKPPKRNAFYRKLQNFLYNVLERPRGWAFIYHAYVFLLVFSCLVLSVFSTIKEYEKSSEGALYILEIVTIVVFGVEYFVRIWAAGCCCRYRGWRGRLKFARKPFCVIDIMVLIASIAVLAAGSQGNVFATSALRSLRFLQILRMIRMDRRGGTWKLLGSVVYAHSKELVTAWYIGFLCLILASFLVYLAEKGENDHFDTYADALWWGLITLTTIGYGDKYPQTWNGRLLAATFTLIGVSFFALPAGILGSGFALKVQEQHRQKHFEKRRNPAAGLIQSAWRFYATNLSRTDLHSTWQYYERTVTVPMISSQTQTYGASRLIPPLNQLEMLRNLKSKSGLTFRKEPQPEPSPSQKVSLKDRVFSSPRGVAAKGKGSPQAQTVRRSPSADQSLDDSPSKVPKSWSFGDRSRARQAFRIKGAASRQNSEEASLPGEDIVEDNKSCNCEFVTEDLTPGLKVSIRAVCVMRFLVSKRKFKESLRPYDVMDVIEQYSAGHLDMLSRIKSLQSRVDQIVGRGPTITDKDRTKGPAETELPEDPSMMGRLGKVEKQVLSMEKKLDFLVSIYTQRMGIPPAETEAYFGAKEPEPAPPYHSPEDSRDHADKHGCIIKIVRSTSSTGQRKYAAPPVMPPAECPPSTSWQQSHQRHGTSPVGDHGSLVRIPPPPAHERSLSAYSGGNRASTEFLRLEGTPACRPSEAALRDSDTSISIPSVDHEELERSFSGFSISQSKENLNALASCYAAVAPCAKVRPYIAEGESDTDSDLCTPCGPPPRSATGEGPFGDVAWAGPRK
KCNQ2 pot baseline – recorded beside KCNQ2 pot, whose call it bears; B-score; compound at 10 µM; measured here: initial fluorescence intensity artifact check;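 brightness before thallium and not channel activity; 0 = typical well and far values either way flag optical interference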
* marks the source's active call; other numbers are inactive results. Not all compounds are listed; the hit share may differ from the screen's.

#	canonical_smiles	KCNQ2 pot baseline	KCNQ2 pot
1	CC(=O)c1ccc(NC(=O)CSc2ccc3nnc(-c4cccnc4)n3n2)cc1	2.2	0.01
2	CCOCC(=O)NCc1ccc2c(c1)cc(C)n2C	-0.37	0.71
3	NC1=C(c2ccc([N+](=O)[O-])cc2)C(=O)CO1	-0.12	0.78
4	COCCn1c(SCC#N)nnc1-c1ccc([N+](=O)[O-])cc1	0.63	0.43
5	COc1ccc(NC(=O)CCN2C(=O)c3ccccc3C2=O)cc1	-0.71	1.1
6	O=[N+]([O-])c1ccccc1S(=O)(=O)N1CCCC(C(F)(F)F)C1 (configuration not stated)	0.18	0.54
7	CN1C(=O)CC(NNC(=O)c2ccc(Cl)cc2)C1=O (configuration not stated)	-1.2	0.08
8	CC(=O)c1cccc(S(=O)(=O)NCC2CCCCC2)c1	-1.4	1.3
9	COc1ccc(CCCC(=O)N/N=C\c2cccs2)cc1	-0.21	0.72
10	COc1ccc(C(CNC(=O)CSc2ccccc2C)N(C)C)cc1 (configuration not stated)	1.2	0.09
11	COc1ccc(CC(=O)NNC(=O)c2cc(C)[nH]n2)cc1	-0.28	0.53
12	CC(=O)c1ccc(Oc2cc(C(F)(F)F)cnc2C(N)=O)cc1	-0.05	0.86
13	Cc1cccc(NC(=O)Cn2c(=O)n(CC3CCCO3)c(=O)c3ccccc32)c1 (configuration not stated)	-0.25	2.4
14	CCOc1ccc(-c2nc(CCl)cs2)cc1	-0.01	1.1
15	CC(C)C1=C2CCCCC2NC(=O)N1 (configuration not stated)	1.2	0.11
16	CC(C)Oc1ccc(C2NC(=O)NC2=O)cc1 (configuration not stated)	-1.7	1.4
17	Cc1ccc2nc(N3CCC(C(=O)NC4CCCCC4)CC3)sc2c1	-0.79	0.09
18	CCOC(=O)N1CCN(C(=O)COc2cccc3c2CCN(Cc2ccc(F)cc2)C3=O)CC1	-0.39	0.95
19	CC(C)CN(CC(C)C)C(=O)CN1C(=O)NC2(CCc3ccccc3C2)C1=O (configuration not stated)	0.37	0.65
20	COc1cc(/C=N/NC(=O)CN2CCOCC2)ccc1OCc1ccccc1	-0.93	1.4
21	O=C(NNC1=Nc2cccc3cccc1c23)c1ccc(Br)cc1	1.1	0.32
22	CCCn1c(SCC(=O)NCc2ccco2)nnc1C(C)C	-1.1	0.43
23	COC(=O)CCC(=O)Nc1cccc(Cl)c1	-0.01	0.12
24	CCn1c(/C=N/Nc2ccc(C(=O)O)cc2)nc2ccccc21	-1.4	2.6
25	O=S(=O)(/N=C(/c1ccc(F)cc1)N1CCCCC1)c1ccc(Cl)cc1	-0.11	0.9
26	COc1ccc(CNc2cc(C)ccn2)cc1	0.21	0.92
27	Cc1cn(C2OC[C@@H](O)[C@@H]2CO)c(=O)[nH]c1=O (some centres not stated)	-0.14	0.02
28	O=C(NC1CC1)c1ccc(C2SCC(=O)N2Cc2ccccc2)cc1 (configuration not stated)	-1.6	0.92
29	CSc1cccc(NC(=O)CN(c2ccc(C)cc2C)S(C)(=O)=O)c1	-1.7	2.3
30	Cc1ccc(/C=N/Nc2cn[nH]c(=O)n2)o1	-2	0.82
31	CC(=O)c1c(C)nc2nonc2c1N	-0.27	2.4
32	O=C1NC(=O)C(Cc2cccc(Oc3ccccc3)c2)S1 (configuration not stated)	-0.59	0.75
33	CC(C)N1CCN(Cc2ccc3c(c2)Cc2ccccc2-3)CC1CCO (configuration not stated)	0.43	0.32
34	O=c1c2ccccc2oc2cc(OCc3ccc(F)cc3)cc(O)c12	-0.02	0.12
35	Oc1ccccc1-c1cc(C(F)(F)F)nc(-c2ccccc2)n1	-0.14	0.28
36	N#C/C(=C/c1ccc(CNS(=O)(=O)c2ccccc2)o1)C(N)=O	-0.47	0.87
37	COc1cc(C(=O)N(c2ccc(C)c(C)c2)C2C=CS(=O)(=O)C2)cc(OC)c1OC (configuration not stated)	-0.08	0.3
38	CSCCC(NC(=O)/C(=C/c1ccc2c(c1)OCO2)NC(=O)c1cccc([N+](=O)[O-])c1)C(=O)O (configuration not stated)	-0.36	0.07
39	c1ccc(-c2nc3ccccc3[nH]2)cc1	-0.48	1.3
40	COc1ccc2[nH]c3c(C)c4ccncc4c(C)c3c2c1	-2.9	1.1
41	Cc1cccc(Nc2nc(NCCO)nc(N3CCCC3)n2)c1	1.9	1.5
42	CC(C)(C)c1ccc(C(=O)N2CCC(C(=O)N3CCCCC3)CC2)cc1	1.8	0.73
43	O=C(Nc1ccccc1)C1CCCCC1	-0.49	0.67
44	COc1ccc(C(=O)NC=C2C(=O)OC(C)(C)OC2=O)cc1	-0.68	0.1
45	CCCCn1cnc2cc(C)c(C)cc21	0.77	0.98
46	Cc1sc2ncnc(N3CCC(C(=O)Nc4ccc(Br)cc4Br)CC3)c2c1C	0.08	0.01
47	N#CCC(=O)NC(=O)NCC1CC1	2	0.52
48	Cn1c(=O)cc(OCC(=O)NCc2cccs2)c2ccccc21	-1.4	0.38
49	O=C(c1ccc(F)cc1)N(C(=O)c1ccc(F)cc1)c1ncccn1	0.03	1.2
50	Brc1ccc(/C=N/c2nc3ccccc3n2CCN2CCOCC2)cc1	-0.74	1.4
51	O=C(Nc1ccc(Cl)cc1)Nc1nnc(CSc2ccc(Cl)cc2)s1	-0.14	0.97
52	COc1cc(C(=O)N2CCN(C3CCCCC3)CC2)cc(OC)c1OC	-0.07	0.08
53	Cc1onc(-c2ccccc2Cl)c1C(=O)N1C=CC(C(F)(F)Cl)=NCC1	-1.6	0.12
54	O=C(C1CC1)N1CCc2cc(S(=O)(=O)NC3CCN(Cc4ccccc4)CC3)ccc21	0	0.88
55	O=S(=O)(Nc1nc2ccccc2[nH]1)c1ccc2ccccc2c1	0.04	0.23
56	Cc1cc(C)c(NC(=O)C2CC(=O)N(c3ccc4c(c3)OCCO4)C2)c(C)c1 (configuration not stated)	-1.4	0.99
57	COc1cc(OC)cc(C(=O)NCC(=O)N2CCCCC2)c1	-0.05	0.86
58	Cc1ccccc1-n1nc2c(c1NC(=O)c1cccs1)CS(=O)(=O)C2	0	0.86
59	CCOC(=O)c1c(NS(C)(=O)=O)sc2c1CCC(C)C2 (configuration not stated)	0.63	2.2
60	Brc1ccc(-n2cnc(-c3ccccc3)c2)cc1	-0.8	0.02

Another view of part of the listing above:
17. Cc1ccc2nc(N3CCC(C(=O)NC4CCCCC4)CC3)sc2c1
  KCNQ2 pot baseline = -0.79
  KCNQ2 pot = 0.09

50. Brc1ccc(/C=N/c2nc3ccccc3n2CCN2CCOCC2)cc1
  KCNQ2 pot baseline = -0.74
  KCNQ2 pot = 1.4

16. CC(C)Oc1ccc(C2NC(=O)NC2=O)cc1 (configuration not stated)
  KCNQ2 pot baseline = -1.7
  KCNQ2 pot = 1.4

20. COc1cc(/C=N/NC(=O)CN2CCOCC2)ccc1OCc1ccccc1
  KCNQ2 pot baseline = -0.93
  KCNQ2 pot = 1.4

Next section:
#	canonical_smiles	KCNQ2 pot baseline	KCNQ2 pot
61	O=C(NCC(O)c1ccccc1)c1ccc(Cl)c(S(=O)(=O)N2CCCCC2)c1 (configuration not stated)	-1.2	0.65
62	CCOC(=O)C[n+]1c(C)ccc2c1CCC2	2.2	0.89
63	COc1ccc(CCNS(=O)(=O)c2cc3c4c(c2)C(C)C(=O)N4CCC3)cc1OC (configuration not stated)	-2.2	0.03
64	O=C(CNC(=O)c1ccccc1F)NCCN1C(=O)S/C(=C\c2ccccc2Cl)C1=O	-0.37	0.67
65	CCOc1cc(OCC)cc(C(=O)NCc2ccco2)c1	-2.3	1.6
66	COc1ccc(Sc2nc(-c3ccccc3)ncc2OC)cc1	-0.31	0.08
67	CC1=Nc2ccccc2N=C(N)C1c1ccccc1 (configuration not stated)	-0.63	0.69
68	CN(CC(=O)Nc1cccc(F)c1)C(=O)CSc1ccccc1F	-0.5	0.82
69	COc1ccc(-c2csc(NC(=S)NC(=O)c3cccs3)n2)cc1OC	-0.85	3.2
70	Cn1c(=O)cc(OCC(=O)NCCCN2CCN(c3cccc(Cl)c3)CC2)c2ccccc21	0.02	0.23
71	CCc1ccc(NC(=O)C2C3/C=C\CCCCC32)cc1 (configuration not stated)	0.06*	5.8*
72	CC(C)c1ccc(NC(=O)C(=O)c2cn(CC(=O)N3CCCCC3)c3ccccc23)cc1	-0.56	1.4

A draw from above in order of formula weight, lowest first.
#	canonical_smiles	KCNQ2 pot baseline	KCNQ2 pot
33	CC(C)N1CCN(Cc2ccc3c(c2)Cc2ccccc2-3)CC1CCO (configuration not stated)	0.43	0.32
51	O=C(Nc1ccc(Cl)cc1)Nc1nnc(CSc2ccc(Cl)cc2)s1	-0.14	0.97
46	Cc1sc2ncnc(N3CCC(C(=O)Nc4ccc(Br)cc4Br)CC3)c2c1C	0.08	0.01

(further entries)
#	canonical_smiles	KCNQ2 pot baseline	KCNQ2 pot
73	COCc1nnc(NC(=O)CSCc2ccccc2)s1	-0.24	0.46
74	Cc1ccc(C(=O)OCC(=O)N2CCCC2)cc1	0.6	0.02
75	O=C(/C=C/c1c(F)cccc1Cl)Nc1ccc(S(=O)(=O)Nc2ncccn2)cc1	0.83	0.91
76	COc1ccc(NC2CCCN(C(=O)c3cc4ncccn4n3)C2)cc1 (configuration not stated)	-1	0.01
77	CC1CCCCC1NC(=O)CSc1nc2ccccc2c(=O)n1Cc1ccco1 (configuration not stated)	-0.18	0.11
78	CCOc1cc(/C=N/N2CCN(Cc3ccccc3)CC2)ccc1O	-0.68	0.62
79	Cc1ccc(NC(=O)C(C)Sc2n[nH]c(CNc3ccccc3)n2)cc1 (configuration not stated)	-0.6	0.43
80	CCCOC(=O)c1cccc(NC(=O)c2cccnc2)c1	-0.56	1.6
81	Cc1cs/c(=N\N=C\c2cccc([N+](=O)[O-])c2)n1Cc1ccco1	0.2	0.72
82	c1ccc(CCCN2CCOCC2)cc1	-0.26	0.11
83	COc1cccc(Cn2cccc(NC(=O)Nc3ccccc3C)c2=O)c1	0.41	0.02
84	Cc1ccc(NC(=S)C2=C(O)c3ccccc3N(C)S2(=O)=O)cc1	0.32	1.9
85	COc1ccc(N2CC(C(=O)N[C@@H](C)C(=O)N[C@H](CO)c3ccccc3)CC2=O)cc1 (some centres not stated)	0.38	0.49
86	CCN(CC)C(=O)Cn1cnc2sc(C(=O)N3CCN(c4ccc(F)cc4)CC3)c(C)c2c1=O	1.7	0.84
87	C/C(=N\NC(=O)c1ccc(C)cc1C)c1ccc2c(c1)Nc1ccccc1S2	-0.58	0.25
88	COc1ccc(-c2nc(CSCC(=O)N3CCc4ccccc43)c(C)o2)cc1OC	1.5	0.65
89	O=C(C1CCCCC1)N1CCC(c2nc3c(nnn3Cc3c(F)cccc3Cl)c(=O)[nH]2)CC1	-2.5	0.56
90	Cn1cc(C(=O)c2ccc(Cl)cc2Cl)cc1C(=O)O	0.38	0.74
91	O=C(CN1CCOCC1)Nc1ccccc1	0.02	2.4
92	CC1CCC(NC(=O)CNC(=O)c2ccc3ccccc3c2)CC1 (configuration not stated)	1.6	1.7
93	O=C(CCCC(=O)OCC(Cl)=C(Cl)Cl)Nc1ccc(F)cc1	-1.4*	9.2*
94	O=C(Cc1ccccc1)c1ccccc1C(=O)N1CCCCC1	1.1	0.32
95	N#Cc1ccc(C(=O)OCC(=O)NC2CCCC2)cc1	-0.04	0.23
96	O=C(Cn1cnc2ccccc21)N/N=C/c1ccccc1	1.6	0.03
97	S=c1[nH]ncn1/N=C/c1ccccn1	-1.4	1.5
98	Cc1nn(-c2ccccc2)c2[nH]c(=O)c(CNCCN3CCOCC3)cc12	-1.2	0.83
99	O=C(COC(=O)Cc1ccsc1)NCc1ccccc1	0.85	0.17
100	Cc1cccc(C)c1NC(=S)NCCCN1CCCC1=O	0.32	0.34
101	CC(=O)NS(=O)(=O)c1ccc(NC(=O)CSc2ccc(Cl)cc2)cc1	-0.11	0.59
102	CCOC(=O)c1[nH]c2c(c1C)C(=O)CC(c1ccc(F)cc1)C2 (configuration not stated)	-1.9	0.85
103	CCCNC(=O)c1ccccc1NC(=O)CSCc1ccc(OC)cc1	1.1	0.07
104	C=CCNc1nc(Nc2cc(Cl)ccc2OC)nc(OC)n1	0.01	0.98
105	N#CCCn1cc(/C=N/NC(N)=S)c(-c2ccc(-c3ccccc3)cc2)n1	0.79	0.13
106	COC(=O)c1sc(NC(=O)c2ccoc2C)nc1C	0.41	1.3
107	COc1ccc(S(=O)(=O)Nc2ccc(S(=O)(=O)NCC3CCCO3)cc2)cc1 (configuration not stated)	-0.26	0.29
108	CC(=O)Nc1ccc(NC(=O)c2ccc(NS(=O)(=O)c3cc(C(C)(C)C)ccc3C)cc2)cc1	-0.07	1.1
109	COc1ccc(NC(=O)C2CC(=O)N(c3cccc(C)c3C)C2)cc1 (configuration not stated)	-1.3	2.5
110	COc1ccc(NC(=O)C(NC(=O)CNC(C)=O)c2ccc(C)cc2)cc1 (configuration not stated)	-0.09	0.73
111	[O-][n+]1cccc(C(O)c2ccccc2)c1 (configuration not stated)	-2.4	0.54
112	CCCC(=O)n1nc(-c2ccco2)nc1N	-0.47	0.58
113	COc1ccc(Cn2nnc(C(=O)Nc3ccc4c(c3)OCCO4)c2N)cc1Br	-0.59	0.18
114	CC1(C)c2[nH]c3ccccc3c2C[C@H]2C(=O)N(CCCO)CC(=O)N21	-0.4	1.9
115	O=C1/C(=C/c2ccc([N+](=O)[O-])cc2)C=C(c2ccccc2)N1c1ccccc1	0	0.17
116	CC(C)(C)C(=O)O/N=C1/C(=O)N(c2ccccc2)c2ccccc21	-0.38	2.3
117	Cc1ccc(C(=O)COC(=O)CCCC(=O)NC2CCCCC2)cc1[N+](=O)[O-]	-0.69	0.85
118	Cc1ccc(C)n1NC(=O)c1ccccc1Cl	1.4	0.68
119	CC(C)(C)c1ccc(/C=N/N2C(=O)CSC2=S)cc1	0.05	1.2
120	Cc1ccc(Cn2c(=N)c(C(=O)NCC3CCCO3)cc3c(=O)n4ccccc4nc32)cc1 (configuration not stated)	-0.22	1.3
121	Cc1nc([N+](=O)[O-])cn1-c1ccc(N)cc1	-0.02	0.12

High-throughput results: PubChem, Johns Hopkins Ion Channel Center
